TRPML1 inh – human mucolipin-1 channel inhibition. Q9GZU1. TRPML1-inducible cells, Ca2+ dye fluorescence, FDSS; active compounds read low; inhibition of EC80 agonist-evoked calcium signal. activity change, negative = inhibition, % (no concentration beside the values). 390,000 compounds, 0.02% hits. AID 624415; in the data active means activity change below about -50%; inconclusive means about -30% to -50%; inactive means above about -30%;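 further: stimulus is agonist 54-4 at its EC80 concentration; on the % scale 0 is the no-effect control and ±100 the full control effect; compound concentration not given in the record; the text of the record puts the active cut at -80%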
Target sequence (Q9GZU1 whole entry, looked up): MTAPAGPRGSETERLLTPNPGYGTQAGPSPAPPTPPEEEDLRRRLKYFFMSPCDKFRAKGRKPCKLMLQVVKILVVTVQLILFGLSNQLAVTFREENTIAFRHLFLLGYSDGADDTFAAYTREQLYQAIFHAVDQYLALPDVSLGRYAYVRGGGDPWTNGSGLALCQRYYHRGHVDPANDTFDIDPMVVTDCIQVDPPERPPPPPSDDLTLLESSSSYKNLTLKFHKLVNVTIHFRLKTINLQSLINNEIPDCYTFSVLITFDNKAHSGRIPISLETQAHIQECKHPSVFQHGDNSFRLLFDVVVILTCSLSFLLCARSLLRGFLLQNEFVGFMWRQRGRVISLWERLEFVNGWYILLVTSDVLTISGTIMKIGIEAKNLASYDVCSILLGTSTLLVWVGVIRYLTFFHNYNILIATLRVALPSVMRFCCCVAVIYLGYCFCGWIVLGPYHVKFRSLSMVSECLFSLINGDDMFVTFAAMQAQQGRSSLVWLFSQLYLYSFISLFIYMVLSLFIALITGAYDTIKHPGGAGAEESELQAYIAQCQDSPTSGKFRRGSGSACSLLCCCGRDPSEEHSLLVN
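Tet-induced TRPML1-DL cells loaded with Ca8 no-wash calcium dye were read kinetically on FDSS. Compound addition was followed by EC80 agonist 54-4 (4 uM final); inhibition was read over 110 s.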
CtBP-E1A blk – CtBP/E1A binding inhibition | 340,000 compounds, 0.49% hits | AlphaScreen GST-E1A/His-CtBP binding, 1536-well; active compounds read low; control for the full effect not named in the record | activity change, % (no concentration beside the values); in the data active means activity change below about -65%; inconclusive means about -30% to -65%; inactive means above about -30%; further: on the % scale 0 is the no-effect control and ±100 the full control effect
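Steps: dispense buffer (Tris pH 8.0, NaCl 300 mM, TCEP 1 mM, BSA, Tween 20); add 5X protein mix (GST-E1A, His-CtBP, 125 nM each); pin 23 nL compound; 2 h at 37 °C, dark; add 5X beads (50 ug/mL); 1 h; read.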
TRPML1 agonist – agonists of human TRPML1 channel; Q9GZU1; TRPML1-expressing cells, Ca2+ dye fluorescence, FDSS; host cell line not named in the record; reference of the full effect not given here; activation, % (test concentration not listed); 410,000 compounds, 0.12% hits; in the data active = activation above about 50%; inconclusive = about 30% to 50%; inactive = below about 30%; further: 0% is about no effect; the text of the record puts the active cut at 80%
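Kinetic FDSS Ca2+ read in Tet-induced TRPML1-DL cells (ABD Ca8 dye plus quencher, 45-90 min RT loading): baseline, then compound, then 110 s agonist window; EC80 agonist 54-4 at 4uM final added afterwards for a 110 s antagonist window.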
Six1-Eya2 inh – inhibitors of human Six1/Eya2 interaction. Q15475+O00167. AlphaScreen GST-Six1/His-Eya2 binding, biochemical; active compounds read low; control for the full effect not named in the record. activity change, % (test concentration not listed). 360,000 compounds, 0.56% hits. AID 651725; in the data active = activity change below about -65%; inconclusive = about -30% to -65%; inactive = above about -30%; further: on the % scale 0 is the no-effect control and ±100 the full control effect
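AlphaScreen with GST-Six1 and His-Eya2 (5X mix: 250 nM and 500 nM), glutathione donor and nickel acceptor beads; buffer 50 mM Tris pH 8.0, 300 mM NaCl, 1 mM TCEP; 1 h at 37 C in the dark.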
PINK1 expr mod – PINK1 expression modulation; PINK1 immunofluorescence, high-content cytometry, 24 h; Potency, µM (titrated, usually from 76.6 µM), for inactives: at the top dose activation (PINK1 increase), most hits filed as activators; 410,000 compounds, 0.2% hits; AID 624263; active = well fitted activation curve with a large enough effect; inconclusive = small, poorly fitted or top-dose-only effect; inactive = flat fitted curve, though single readings scatter; cell line not stated here;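 further: potency means the concentration at half of the fitted maximal effect; % of control where 0% means no effect; nearly all actives have a fitted effect of over 65% in size; a mitochondrial uncoupler was the plate control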
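Fluorescence from anti-PINK1 antibody, together with nuclear and cell stains, was scanned on a laser-scanning cytometer. Before staining, stable-line cells were incubated 24 hours with compounds at 5 concentrations; primary antibody 12 h at 10 degrees C.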
D2 ag – agonists of human D2 dopamine receptor (beta-arrestin) | P14416 | DiscoveRx PathHunter D2 beta-arrestin, luminescence, 90 min; 100% = 57 uM dopamine signal | activation, % (no concentration beside the values) | 360,000 compounds, 0.084% hits | AID 624465; in the data active = activation above about 40%; inconclusive = about 15% to 40%; inactive = below about 15%; further: compound concentration not given in the record; the text of the record calls up to 30% inactive
Target sequence (P14416 whole entry, looked up): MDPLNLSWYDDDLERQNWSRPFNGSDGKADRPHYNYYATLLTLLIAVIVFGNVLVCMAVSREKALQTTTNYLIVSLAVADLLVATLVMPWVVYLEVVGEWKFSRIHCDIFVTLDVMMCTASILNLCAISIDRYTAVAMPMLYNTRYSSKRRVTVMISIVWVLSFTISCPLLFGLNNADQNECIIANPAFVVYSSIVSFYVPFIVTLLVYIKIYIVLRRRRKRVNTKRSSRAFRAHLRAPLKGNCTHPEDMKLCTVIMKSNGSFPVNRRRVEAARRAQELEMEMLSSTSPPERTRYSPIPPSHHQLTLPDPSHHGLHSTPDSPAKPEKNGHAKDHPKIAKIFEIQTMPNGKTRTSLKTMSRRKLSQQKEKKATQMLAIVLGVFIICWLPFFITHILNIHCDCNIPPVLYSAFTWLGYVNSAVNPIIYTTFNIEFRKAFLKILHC
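Agonist mode: compounds alone added to overnight-plated D2 PathHunter cells for 90 min at 37 C, with 57 uM final dopamine (EC100) defining full response. Beta-arrestin recruitment detected by chemiluminescent reagent, read after 1 h at ambient temperature.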
Numbers without * were called inactive; [ ] = remark or other dose.

For COc1ccc(/C=N/Nc2nnc(Cc3ccccc3)c(=O)[nH]2)cc1 the results were TRPML1 inh 14, CtBP-E1A blk -4, TRPML1 agonist 0.7, Six1-Eya2 inh 2, PINK1 expr mod -2.1% and D2 ag -1.3.
`COC(=O)c1cc2ccsc2n1Cc1nc(-c2ccc(Cl)cc2)oc1C` gave TRPML1 inh 66, CtBP-E1A blk 3, TRPML1 agonist 0.1, Six1-Eya2 inh 0, PINK1 expr mod 1.6% and D2 ag -2.6.
Screening NC(=O)c1ccc(-n2nnnc2Oc2ccccc2C(=O)N2CCOCC2)cc1 returned TRPML1 inh 30, CtBP-E1A blk 7, TRPML1 agonist 1.3, Six1-Eya2 inh 13, PINK1 expr mod -2.6% and D2 ag -2.2.
Screening COc1ccc(CNC(=O)C(C)NCc2ccccc2Cl)cc1 (centres undefined) returned TRPML1 inh 17, CtBP-E1A blk 6, TRPML1 agonist -1.7, Six1-Eya2 inh -6, PINK1 expr mod 1.6% and D2 ag -1.8.
`C=CCNc1oc(-c2cccs2)nc1S(=O)(=O)c1ccccc1` gave TRPML1 inh 7, CtBP-E1A blk 15, TRPML1 agonist 1.5, Six1-Eya2 inh -24, PINK1 expr mod 0.3% and D2 ag 0.9.
`CSC1=N/C(=C\c2cccc(Cl)c2)C(=O)N1N(C)C` gave TRPML1 inh 4, TRPML1 agonist 0.2, Six1-Eya2 inh -1, PINK1 expr mod 3.1% and D2 ag -4.8.
NS(=O)(=O)c1ccc(NC(=O)COC(=O)c2ccc(Cl)nc2)cc1 was read as TRPML1 inh 5, TRPML1 agonist 0.1, Six1-Eya2 inh 25, PINK1 expr mod 4.9% and D2 ag -4.4.
Screening COc1ccc(Cc2nc3ccc(C(=O)N4CCC(N(C)C)C4)cc3o2)cc1 (centres undefined) returned TRPML1 inh -10, CtBP-E1A blk 1, TRPML1 agonist -0.1, Six1-Eya2 inh -1, PINK1 expr mod 0.3% and D2 ag -2.8.
`CN(C)NC(=S)NC1(C)CCS(=O)(=O)C1` (centres undefined) gave TRPML1 inh 10, CtBP-E1A blk 2, TRPML1 agonist 0.7, Six1-Eya2 inh 9, PINK1 expr mod -1.8% and D2 ag 5.2.
COc1ccccc1CNC(=O)C1CCC(=O)N(CCCN2CCCC2=O)C1 (centres undefined) was read as TRPML1 inh 16, CtBP-E1A blk 1, TRPML1 agonist -0.5, Six1-Eya2 inh 3, PINK1 expr mod 1.2% and D2 ag -4.2.
For O=C1N(CN2CCN(Cc3ccccc3)CC2)c2ccccc2C12OCCCO2 the results were TRPML1 inh -4, CtBP-E1A blk 0, TRPML1 agonist -1.2, Six1-Eya2 inh 0, PINK1 expr mod 1.4% and D2 ag -5.5.
For O=C(c1ccc2c(=O)n3c(nc2c1)CCCCC3)N1CCN(c2ccc([N+](=O)[O-])cc2)CC1 the results were TRPML1 inh 54, CtBP-E1A blk -6, TRPML1 agonist 1.2, Six1-Eya2 inh -6, PINK1 expr mod 1.9% and D2 ag 8.3.
Screening CC(C)(C)c1ccc(OCCn2ccccc2=O)cc1 returned TRPML1 inh 23, CtBP-E1A blk -8, TRPML1 agonist 3.2, Six1-Eya2 inh 2, PINK1 expr mod -2.7% and D2 ag -2.3.
For CC(=O)CC1c2cc(F)ccc2C=C(c2ccsc2)N1c1ccc(-c2ccc(C(N)=O)cc2)cc1 (centres undefined) the results were CtBP-E1A blk 13, TRPML1 agonist -0.1, Six1-Eya2 inh 9 and PINK1 expr mod 0.6%.
Screening Cc1ccc(NC(=O)Cn2cccc2)c(C)c1 returned TRPML1 inh -13, CtBP-E1A blk 3, TRPML1 agonist -0.6, Six1-Eya2 inh 2, PINK1 expr mod -2.9% and D2 ag -2.5.
`O=C(COC(=O)/C=C/c1ccccc1)Nc1cccc(Oc2ccccc2)c1` gave TRPML1 inh 11, CtBP-E1A blk -7, TRPML1 agonist 1.1, Six1-Eya2 inh -2, PINK1 expr mod 3.8% and D2 ag -5.8.
C=CCNC(=O)c1ccc(Cn2cc(C(F)(F)F)ccc2=O)cc1 was read as TRPML1 inh 25, CtBP-E1A blk 5, TRPML1 agonist -0.5, Six1-Eya2 inh 7, PINK1 expr mod 3.4% and D2 ag -1.1.
For CN1CCCC(OC(=O)c2cccc(S(=O)(=O)N3CCCCCC3)c2)C1 (centres undefined) the results were TRPML1 inh 42, CtBP-E1A blk -1, TRPML1 agonist 0.6, Six1-Eya2 inh 0, PINK1 expr mod 1.0% and D2 ag 1.1.
CCOc1ncccc1C(=O)Nc1cc(S(=O)(=O)N2CCCCCC2)ccc1OC was read as TRPML1 inh 3, CtBP-E1A blk -1, TRPML1 agonist 0.4, Six1-Eya2 inh -4, PINK1 expr mod 18% and D2 ag 1.8.
O=C(c1cc([N+](=O)[O-])ccc1Cl)N1CCN(Cc2ccc3c(c2)OCO3)CC1 was read as TRPML1 inh 36, CtBP-E1A blk 0, TRPML1 agonist 0.2, Six1-Eya2 inh 22, PINK1 expr mod -2.3% and D2 ag -0.1.
`Cc1ccc2oc(=O)c3cnn(CC(=O)N4CCN(c5cccc(C(F)(F)F)c5)CC4)c3c2c1` gave TRPML1 inh 5, TRPML1 agonist -1.0 and PINK1 expr mod 0.8%.
CC(=O)C[C@@H](O)CC(=O)[C@H]1OC(=O)CC/C=C\Cc2ccccc21 was read as TRPML1 inh 0, CtBP-E1A blk 4, TRPML1 agonist -0.7, Six1-Eya2 inh -1, PINK1 expr mod -0.4% and D2 ag -2.5.
COc1ccccc1C(=O)C1CCCN(C(=O)CCc2ccccn2)C1 (centres undefined) was read as TRPML1 inh 2, CtBP-E1A blk 3, TRPML1 agonist -0.4, Six1-Eya2 inh 5, PINK1 expr mod -0.3% and D2 ag -5.8.
Screening O=C(Nc1ccc(NC(=O)N2CCN(c3ccccc3O)CC2)cc1)N1CCN(c2ccccc2O)CC1 returned TRPML1 inh 2, CtBP-E1A blk -21, TRPML1 agonist 0.5, Six1-Eya2 inh -14, PINK1 expr mod 3.7% and D2 ag 6.3.
`CC(C)[C@H](NC(N)=O)C(=O)NCCc1ccc(Cl)cc1Cl` gave TRPML1 inh 5, CtBP-E1A blk -1, TRPML1 agonist 0.1, Six1-Eya2 inh -5, PINK1 expr mod -1.9% and D2 ag -1.8.
Screening O=C(NCc1ccco1)c1cc(S(=O)(=O)N2CCOCC2)ccc1Br returned TRPML1 inh 1, CtBP-E1A blk 14, TRPML1 agonist 0.0, Six1-Eya2 inh -2, PINK1 expr mod 2.8% and D2 ag -3.2.
`COc1ccc(NC(=O)c2oc3ccccc3c2NC(=O)c2cc(=O)c3ccccc3o2)cc1` gave TRPML1 inh -16, TRPML1 agonist -0.8 and PINK1 expr mod 1.6%.
COc1ccc2c(c1OC)C(=O)N1N=C(c3ccc(Br)cc3)CC21 (centres undefined) was read as TRPML1 inh 9, CtBP-E1A blk 4, TRPML1 agonist -0.5, Six1-Eya2 inh 2, PINK1 expr mod -1.3% and D2 ag 2.3.
Screening CC(=O)c1cccc(NC(=O)c2cccn2-c2nnc(N3CCCCC3)s2)c1 returned TRPML1 inh -6, TRPML1 agonist 0.6 and PINK1 expr mod -0.1%.
`COC(=O)C(CC(=O)c1cccc(OC)c1)c1ccc(F)cc1` (centres undefined) gave TRPML1 inh 12, CtBP-E1A blk 16, TRPML1 agonist 1.1, Six1-Eya2 inh 3, PINK1 expr mod 0.1% and D2 ag 0.6.
CCOC(=O)c1c(C)oc2ccc(OS(C)(=O)=O)cc12 was read as TRPML1 inh -28, CtBP-E1A blk 2, TRPML1 agonist 2.1, Six1-Eya2 inh 9, PINK1 expr mod -0.5% and D2 ag 9.3.
Screening Cc1sc(NC(=O)/C=C/c2ccc(C(C)C)cc2)c(C#N)c1C returned TRPML1 inh 20, CtBP-E1A blk 6, TRPML1 agonist -0.1, Six1-Eya2 inh 1, PINK1 expr mod 12% and D2 ag -2.0.
Screening CCCN(C(=O)COC(=O)COc1c(C)cccc1C)c1c(N)n(Cc2ccccc2)c(=O)[nH]c1=O returned TRPML1 inh 23, CtBP-E1A blk 5, TRPML1 agonist 1.0, Six1-Eya2 inh 13, PINK1 expr mod -1.0% and D2 ag -7.0.
`CC(=O)c1ccccc1NS(=O)(=O)c1ccc2c(c1)CC(=O)N2` gave TRPML1 inh 14, CtBP-E1A blk -7, TRPML1 agonist 1.9, Six1-Eya2 inh -5, PINK1 expr mod 1.8% and D2 ag 14.
For CCCCC(=O)Nc1nnc(S(=O)(=O)N(C)Cc2ccc(Cl)cc2)s1 the results were TRPML1 inh -3, TRPML1 agonist 0.8 and PINK1 expr mod 0.6%.
For CCN(CC)CCn1c2c(c(SCC(=O)Nc3ccc(C)c(F)c3)nc1=O)CCC2 the results were TRPML1 inh 51, CtBP-E1A blk -5, TRPML1 agonist 0.7, Six1-Eya2 inh -8, PINK1 expr mod -1.4% and D2 ag -1.4.
`COc1ccc(CNCC(O)COCc2cccs2)cc1` (centres undefined) gave TRPML1 inh -1, CtBP-E1A blk 9, TRPML1 agonist -0.6, Six1-Eya2 inh 0, PINK1 expr mod 42%[38.3 µM] and D2 ag -3.7.
Screening Cc1ccccc1CSCCNC(=O)C1CCN(S(=O)(=O)Cc2ccccc2)CC1 returned TRPML1 inh 4, TRPML1 agonist -0.6 and PINK1 expr mod 4.7%.
Cc1cn(COC/C=C/c2ccccc2)c(=O)[nH]c1=O was read as TRPML1 inh -4, CtBP-E1A blk 49, TRPML1 agonist -0.5, Six1-Eya2 inh 22 and D2 ag -2.7.
`O=C(NCCN1CCN(c2ccccc2)CC1)C1CCN(S(=O)(=O)c2cccc3nonc23)CC1` gave TRPML1 inh 2, CtBP-E1A blk -4, TRPML1 agonist -0.2, Six1-Eya2 inh 5, PINK1 expr mod -2.2% and D2 ag inconclusive.

Among those listed so far, three contain a furan ring, fused or not:
Screening O=C(NCc1ccco1)c1cc(S(=O)(=O)N2CCOCC2)ccc1Br returned TRPML1 inh 1, CtBP-E1A blk 14, TRPML1 agonist 0.0, Six1-Eya2 inh -2, PINK1 expr mod 2.8% and D2 ag -3.2.
`COc1ccc(NC(=O)c2oc3ccccc3c2NC(=O)c2cc(=O)c3ccccc3o2)cc1` gave TRPML1 inh -16, TRPML1 agonist -0.8 and PINK1 expr mod 1.6%.
CCOC(=O)c1c(C)oc2ccc(OS(C)(=O)=O)cc12 was read as TRPML1 inh -28, CtBP-E1A blk 2, TRPML1 agonist 2.1, Six1-Eya2 inh 9, PINK1 expr mod -0.5% and D2 ag 9.3.

Quoted at random: two records from the list, in no set order.
Screening CCCN(C(=O)COC(=O)COc1c(C)cccc1C)c1c(N)n(Cc2ccccc2)c(=O)[nH]c1=O returned TRPML1 inh 23, CtBP-E1A blk 5, TRPML1 agonist 1.0, Six1-Eya2 inh 13, PINK1 expr mod -1.0% and D2 ag -7.0.
`O=C(NCCN1CCN(c2ccccc2)CC1)C1CCN(S(=O)(=O)c2cccc3nonc23)CC1` gave TRPML1 inh 2, CtBP-E1A blk -4, TRPML1 agonist -0.2, Six1-Eya2 inh 5, PINK1 expr mod -2.2% and D2 ag inconclusive.

Compound activity (PubChem)
